MLL AF4-AF9 inh: inhibitors of AF4 peptide binding to AF9, primary screen, biochemical, AlphaScreen, biotin-AF4 peptide, FLAG-AF9, single point; inhibition, % at 10 µM; 0.47% of 350,000 active; AID 651704, 2012;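 active = every replicate reaching a set inhibition limit, whatever the replicate mean, cut at about 25% in these data; inconclusive = mean inhibition reaches that limit but some replicates miss it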;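 also: 0% = plate neutral control median and 100% = total signal loss; the record names both 10 and 1 µM as test concentration; the first replicate is given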
UCH37 DUB inh: inhibitors of human UCH37 deubiquitinase, primary screen, biochemical, Ub-AMC cleavage, fluorescence; purified proteasome/UCH37; inhibition, % (no concentration beside the values); Ubiquitin carboxyl-terminal hydrolase isozyme L5 (Homo sapiens), Q9Y5K5; 0.33% of 330,000 active; AID 588478, 2011;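 active = mean of two replicates above 20%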;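 also: 0% = compound-free wells with enzyme and 100% = wells lacking proteasome; stock transfer was 100 nL into about 20 µL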
Target sequence (Q9Y5K5 whole entry, looked up): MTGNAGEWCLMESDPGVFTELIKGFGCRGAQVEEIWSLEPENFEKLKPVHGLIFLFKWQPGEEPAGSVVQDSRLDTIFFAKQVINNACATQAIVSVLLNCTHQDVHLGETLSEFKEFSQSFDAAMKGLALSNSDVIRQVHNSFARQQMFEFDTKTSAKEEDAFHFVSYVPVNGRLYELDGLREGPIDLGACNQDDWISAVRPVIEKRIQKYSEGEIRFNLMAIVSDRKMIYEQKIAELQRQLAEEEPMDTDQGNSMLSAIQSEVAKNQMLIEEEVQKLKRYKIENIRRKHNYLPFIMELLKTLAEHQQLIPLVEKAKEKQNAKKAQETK
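Material: human UCH37 enzyme supplied as purified proteasome complex / Amount: 0.15 nM proteasome as dispensed / Buffer or medium: pH 7.4 Tris-HCl (50 mM) with ovalbumin, ATP-MgCl2, DTT / Times: preincubation 30 min, reaction 25 min, room temperature / Technique: AMC fluorescence from Ub-AMC cleavage, excitation 355 nm, emission 460 nm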
FGF22 binding: binders of human FGF22 protein, primary screen, FGF22 synaptogenesis inhibitor project, biophysical, thermal shift, single point. AID 651658, 2012. recombinant FGF22 thermal shift, SYPRO orange fluorescence; percent of sucrose octasulfate shift, DMSO zero. 1.5% of 340,000 active. calls only at 9.99 µM;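 active = melting point raised past a set limit in the mean and every replicate; inconclusive = no clear call; three in four hits are not shown here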
Target sequence (Q9HCT0 whole entry, looked up): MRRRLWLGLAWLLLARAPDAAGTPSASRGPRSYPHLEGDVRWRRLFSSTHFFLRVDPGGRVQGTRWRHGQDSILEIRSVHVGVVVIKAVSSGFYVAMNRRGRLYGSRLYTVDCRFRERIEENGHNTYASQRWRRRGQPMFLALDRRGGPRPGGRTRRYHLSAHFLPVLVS
RanGTP-Impb inh: inhibitors of RanGTP-importin-beta interaction, primary screen, biochemical, FRET, CFP-Ran, YFP-importin-beta, homogeneous; AID 2216, 2009; inhibition, % (test concentration not listed); 1.1% of 300,000 active; Ran GTPase (GTP-bound) - importin-beta complex; cell-free CFP-Ran/YFP-importin-beta FRET ratio;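 active = most replicates above 15%; inconclusive = exactly half above 15%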;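 also: 0% = DMSO wells and 100% = Ran loaded with GDP instead of GTP; wells of about 40 µL received 100 nL stock; the first replicate is given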
Vif A3G: inhibitors of Vif binding to APOBEC3G peptide, primary screen, biochemical, TR-FRET, GST-Vif 1-94, biotin-A3G peptide, dose response retest (AID 1117319) | TR-FRET GST-Vif / biotin-A3G peptide binding; higher % means a stronger effect; test concentration not given here; strong numbers were not always called active | Virion infectivity factor (Human immunodeficiency virus type 1 group M subtype B (isolate … | 0.57% of 260,000 active | inhibition, %; hits with a dose series show IC50 in µM;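 active = above the screen mean plus three standard deviations and confirmed in dose response; inconclusive = results disagree or hit not tested in dose response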;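 also: Vif residues 1-94 fused to GST binding biotinylated APOBEC3G peptide 110-148; 0% = full assay without inhibitor and 100% = GST in place of GST-Vif; retest series ran down from 100 µM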
HNF4A DNA FP: change in binding of human HNF4A to DNA, primary screen, biochemical, fluorescence polarization, FITC-DNA. AID 1224865, 2016. 0.3% of 360,000 active. 1 h. activity change, % at 10 µM; in the data active = activity change above about 30%, passing the limit was not always enough;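 also: controls were the assay level and a saturating level of protein; the project sought stronger binding though the title names inhibitors; some compounds called inactive have numbers as strong as hits; positive values seem to mean higher polarization but the record does not say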
Target sequence (P41235 whole entry, looked up): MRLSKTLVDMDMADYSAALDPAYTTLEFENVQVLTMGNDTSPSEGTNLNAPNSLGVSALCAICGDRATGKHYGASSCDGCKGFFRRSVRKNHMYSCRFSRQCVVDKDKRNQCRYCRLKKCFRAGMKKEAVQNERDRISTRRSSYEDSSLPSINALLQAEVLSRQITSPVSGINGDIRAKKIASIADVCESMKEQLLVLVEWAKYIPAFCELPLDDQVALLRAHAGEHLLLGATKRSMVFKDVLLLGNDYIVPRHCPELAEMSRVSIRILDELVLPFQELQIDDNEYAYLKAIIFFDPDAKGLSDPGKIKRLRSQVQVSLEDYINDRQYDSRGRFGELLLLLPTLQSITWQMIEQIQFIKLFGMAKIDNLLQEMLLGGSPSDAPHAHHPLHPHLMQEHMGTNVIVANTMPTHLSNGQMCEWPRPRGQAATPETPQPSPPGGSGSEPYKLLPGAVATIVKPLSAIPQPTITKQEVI
Ecoli growth: E. coli growth inhibition, primary screen, OD600; 0.21% of 330,000 active; Escherichia coli growth, 23 h; active compounds read low; OD600 absorbance (concentration not given with the values);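 active = OD600 absorbance below the run mean of sample wells minus 3.6 SD, in any replicate, cut at about 0.56 in these data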;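 also: stock transfer was 300 nL into about 60 µL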
Active calls of the source: *; i = inactive; ? = inconclusive; nt = not tested or not shown; + = active, no number; & = joins results of further samples. These rows are one share of the data; count on the stated rates, not on these rows.

mol	MLL AF4-AF9 inh	UCH37 DUB inh	FGF22 binding	RanGTP-Impb inh	Vif A3G	HNF4A DNA FP	Ecoli growth
CCCCCCSc1cc(-c2nc3ccc(Cl)cn3c2NCCCC)ccc1OC	5.5&-0.1	-50	i	6.4	nt	0.7&5.0	0.81
Cc1nc(NC(=O)Nc2ccc(Cl)cc2)sc1C	-4.6	-0.3	i	3.5	-3%	2.3	0.67
COc1ccc(C)cc1NC(=O)C1CC(=O)N(CCc2ccc(F)cc2)C1 (centres undefined)	-5.1	nt	i	nt	nt	-1.8	nt
COc1cc2c(cc1OC)CN(C(=O)CN1CCN(S(=O)(=O)c3ccccc3Br)CC1)CC2	4.8	4.3	i	2.7	nt	3.2	0.69
Cc1ccc2[nH]c3c(=O)n(N)c(=O)[nH]c3c2c1	0.2	-185	i	3.3	11%	0.1	0.71
CC(=O)Nc1ccc(Nc2c3c4c(cccc4n(C)c2=O)C(=O)c2ccccc2-3)cc1	5.0	3.7	i	-285	4%	-126	nt
O=c1c2ccccc2nc2n1CCCCC2	nt	2.2	nt	2.1	21%	-0.2	0.76
O=C(Cc1ccc(S(=O)(=O)N2CCCC2)s1)N1CCN(c2ccc(F)cc2)CC1	1.9	5.2	i	0.0	-7%	0.4	0.72
O=S1(=O)CCN(C2CCCC2)CC1	-0.3	nt	i	nt	-1%	7.8	nt
CN(Cc1ccccc1)C(=O)CN1C(=O)c2ccccc2S1(=O)=O	-0.7	-2.6	i	1.1	nt	-0.8	0.63
COc1cccc(-n2nnnc2SCC(=O)Nc2cccc(C)n2)c1	-0.8	-1.4	i	2.5	-3%	0.0	0.71
CC1CCCN(C(=O)COC(=O)c2cc([N+](=O)[O-])ccc2N2CCOCC2)C1 (centres undefined)	-3.0	8.4	i	-1.1	1%	0.9	0.7
COc1ccc(/C=N/NC(=O)c2ccc(Cn3cc([N+](=O)[O-])cn3)o2)cc1O	nt	nt	nt	2.3	28%	0.1	nt
CCCC(C)NC(=O)CSc1nc2ccc(C)cc2[nH]1 (centres undefined)	-0.2	-0.1	i	-0.7	0%	-0.8	0.65
O=C(O)c1ccc(CSc2nnc(-c3ccncc3)n2-c2ccc(Cl)cc2)cc1	1.4	0.1	i	2.6	-16%	-1.2	0.65
COc1ccc(NS(=O)(=O)c2ccc3c(c2)Cc2ccccc2-3)cn1	nt	2.1	nt	3.6	1%	1.5	0.65
CCCOc1cccc(C(=O)NC(=S)Nc2ccccc2)c1	-3.9	2.9	i	-2.5	-5%	-1.6	0.73
COCCNc1c([N+](=O)[O-])c(=O)n(-c2ccccc2)c2ccccc12	nt	8.4	nt	1.2	-10%	-1.7	0.69
O=c1cc(O)n(Cc2ccc(F)cc2)c(=O)[nH]1	-1.3	5.2	i	1.3	-2%	3.3	0.68
CC1=Nc2cc(C(=O)NCC3CCCO3)ccc2Sc2ccc(C)cc21 (centres undefined)	1.8	1.2	i	-2.5	nt	-4.2	0.69
CC(C)(C)n1nc(Cc2cccc3ccccc23)c2c(N)ncnc21	-29	0.4	i	-1.0	nt	-0.6	0.68
Cc1ccc(Cl)cc1NC(=O)c1ccc(CSc2nnnn2C)cc1	nt	-0.7	nt	3.1	-3%	-0.4	0.69
Cn1c(CN2CCOCC2)nnc1SCC(=O)Nc1nccs1	nt	4.0	nt	-2.0	4%	1.4	0.74
O=C(N/N=C/c1ccc(OC(=O)c2ccccc2Br)cc1)c1ccccn1	0.0	nt	i	-3.9	1%	1.0	nt
Cc1ccccc1N1CCN(C2CCCN(C(=O)CCn3cnnn3)C2)CC1 (centres undefined)	-7.3	3.7	i	-0.9	nt	3.7	0.69
COc1cc(Cl)cc(/C=C/c2ccc3ccccc3n2)c1OC(C)=O	nt	nt	nt	0.3	6%	-3.2	nt
COC(=O)C1CN(C(=O)COc2cccc(C)c2C)c2ccccc2O1 (centres undefined)	-0.5	2.8	i	0.2	-3%	-2.8	0.7
Cc1ccc(-c2nnn(CC(=O)NCCc3ccc4c(c3)OCO4)n2)o1	nt	0.4	nt	-0.2	0%	1.3	0.69
Nc1nc(Nc2ccccc2F)nc(NCCO)c1[N+](=O)[O-]	4.2	16	i	1.8	-4%	-0.3	0.61
COc1ccc(-c2nc(CS(=O)CC(=O)NCc3cccnc3)c(C)o2)cc1OC (centres undefined)	-1.9	2.6	i	?	29%	-2.2	0.69
Cn1c(=O)c2c(-c3ccccc3)n(Cc3ccccn3)cc2n(C)c1=O	nt	nt	nt	1.5	-1%	2.7	nt
O=C(COC(=O)Cn1[nH]c(=O)c2ccccc2c1=O)Nc1ccc2c(c1)OCO2	nt	0.3	nt	-3.4	1%	-2.8	0.7
CC(=O)NCCNc1nc(NCc2cccs2)nc2ccsc12	-2.5	nt	i	nt	nt	3.4	nt
O=C(Nc1cc(S(=O)(=O)N2CCCCCC2)ccc1OCC(F)(F)F)c1ccc(=O)[nH]c1	-1.0	0.0	i	nt	-1%	0.1	0.67
CC1=NN(C(=O)c2csc(C)c2)C(O)(C(F)(F)F)C1 (centres undefined)	nt	3.3	nt	?	68%	-0.5	0.71
CCc1ccc(C(=O)NCc2cnn(C)c2)s1	-0.3	1.3	+	4.2	-9%	-2.3	0.69
CN(N=Cc1ccccc1)C(=S)Nc1ccccc1	0.6	nt	i	nt	-4%	0.5	nt
O=C(C1CCCO1)N1CCN(C(=S)Nc2ccc(Br)cc2)CC1 (centres undefined)	-14	3.1	i	10	-1%	-3.5	0.71
Cc1cccc(NC(=O)CSc2nnc(-c3cnccn3)n2Cc2ccco2)c1	nt	3.9	nt	0.8	21%	0.4	0.72
Cc1cccc(NS(=O)(=O)c2nnc(NC(=O)CC(C)C)s2)c1	-0.3	4.6	i	-5.6	-3%	-0.8	0.7
Cc1nn(-c2ccccc2)c(Cl)c1C1C(C#N)=C(N)OC2=C1C(=O)CC(C)(C)C2 (centres undefined)	nt	0.3	nt	1.7	2%&-4%	-0.8	0.77
COc1cc(CCC(O)CC(=O)CCc2ccccc2)ccc1O (centres undefined)	-0.4	-0.5	i	0.1	?	-1.0	0.77
CC1(C)C=C(c2ccc(C(=O)O)s2)CC(C)(C)N1	-4.9	5.7	i	1.9	0%	-0.5	0.65
C[C@@H](CN=[N+]=[N-])CN1CC[C@H](C(C)(C)C)CCC1=O	-2.5	0.6	i	-2.2	nt	-3.9	nt
Cc1ccc(O)c(C(=O)c2cnc3onc(-c4ccc(F)cc4)c3c2)c1	-5.3	-0.1	i	-0.1	nt	2.8	0.7
CC1=NN(c2ccccc2)C(=O)C1(C)[N+](=O)[O-] (centres undefined)	nt	4.5	nt	3.5	-7%	-0.6	0.68
COc1ccccc1NC(=O)COC(=O)c1cc2ccccc2cc1O	-0.7	-0.2	i	nt	nt	-0.5	0.72
CCCc1c(C)nn(C(=O)/C(C#N)=N/Nc2ccccc2[N+](=O)[O-])c1C	0.8	nt	i	0.9	-1%	-3.3	nt
O=C1C=C(NCc2ccccc2)C2(CCCCC2)O1	nt	3.6	nt	1.5	11%	0.2	0.71
COc1ccc(-c2oc(=O)c3cc(OC)c(OC)cc3c2/C=C/c2ccc(OC(C)=O)cc2)cc1	-0.7	-13	i	nt	nt	-0.2	nt
O=c1c2ccccc2ncn1Cc1ccc(Cl)cc1	nt	5.1	nt	3.2	0%	4.3	0.66
CC(O)(c1ccc(F)c(F)c1)c1nc(-c2ccc(F)c(Cl)c2)cs1 (centres undefined)	-8.8	nt	i	nt	nt	-1.8	nt
CC(C)Cc1ccc(CN2C(C)C(=O)N(Cc3cn(Cc4ccco4)nn3)CCS2(=O)=O)cc1 (centres undefined)	-6.0	nt	i	nt	nt	1.6	nt
COc1ccc(NS(=O)(=O)c2cc(NC(=O)c3ccc(=O)[nH]c3)ccc2C)cc1	-2.2	-1.3	i	nt	-5%	1.9	0.66
CCOC(=O)N1CCC(N2C(=O)c3ccccc3C2Nc2cc(OC)c(OC)c(OC)c2)CC1 (centres undefined)	17	2.4	i	-1.0	?	0.2	0.8
O=S(=O)(N/N=C/c1cn(Cc2ccccc2)c2ccccc12)c1ccccc1	nt	nt	nt	-1.8	-6%	-2.7	nt

(listing goes on)
mol	MLL AF4-AF9 inh	UCH37 DUB inh	FGF22 binding	RanGTP-Impb inh	Vif A3G	HNF4A DNA FP	Ecoli growth
COc1cccc(N2CCN(CC(=O)C34CC5CC(CC(C5)C3)C4)CC2)c1	nt	1.7	nt	4.3	20%	1.2	0.67
CC(=O)c1ccc(NC(=O)c2cnn3c(C(F)F)cc(C4CC4)nc23)cc1	nt	2.2	nt	0.0	-4%	-0.8	0.74
Cc1c(C)n(C(=O)CSc2ncn[nH]2)c2ccccc12	nt	2.0	nt	1.1	-3%	0.2	0.7
Cc1ccc(OCC(=O)N2N=C(c3ccc(Cl)cc3)CC2c2ccco2)c([N+](=O)[O-])n1 (centres undefined)	7.2	2.0	i	4.4	16%	3.9	0.69
O=C1c2ccccc2S(=O)(=O)N1Cc1nc2ccccc2s1	nt	5.4	nt	-0.9	4%	2.8	0.72
CCOC(=O)C1CCCN(C(=O)CCn2nc(-c3ccccc3)ccc2=O)C1 (centres undefined)	2.6	4.7	i	-2.9	29%	-0.7	0.67
CC(C)CC(=O)Nc1ccc(C(=O)COC(=O)CN2C(=O)NC3(CCCCC3C)C2=O)cc1 (centres undefined)	-9.9	-0.6	i	nt	2%	-2.6	0.71
CC1CCc2c(sc(NC(=O)CCCn3cnc([N+](=O)[O-])n3)c2C(N)=O)C1 (centres undefined)	1.4	nt	i	0.6	8%	0.9	nt
N#Cc1ccc(-c2c(-c3ccccc3)ncc3cc(F)ccc23)cc1	-14	0.5	i	nt	nt	-4.4	0.71
CCOc1ccc(N(CC(=O)N2CCCC2)S(=O)(=O)c2ccc(F)cc2)cc1	-2.8	-1.5	i	?	4%	-0.5	0.67
CC(C)CN(C(=O)COC(=O)C(C)N1C(=O)c2ccccc2C1=O)c1c(N)n(Cc2ccccc2)c(=O)[nH]c1=O (centres undefined)	-7.3	4.6	i	1.1	-4%	-0.2	0.7
CC1CCN(C(=O)COC(=O)c2ccccc2C(=O)c2ccccc2)CC1	-0.6	1.9	i	nt	4%	5.6	0.7
Cc1nn(-c2cccc(Cl)c2)nc1C(=O)O	-0.3	1.8	i	-3.5	0%	4.7	0.75
c1ccc2nc(-c3ccncc3)ccc2c1	nt	1.8	nt	-3.3	8%	2.2	0.66
O=c1c(-c2cccc3ccccc23)[n+]([O-])c2ccccc2n1O	nt	2.4	nt	-21	24%	5.4	0.74
Cc1cccn2c(=O)c3cc(C(=O)NCc4ccccc4)c(=N)n(CCCN4CCOCC4)c3nc12	5.8	-360	i	nt	nt	7.0	0.68
CC(NC(=O)CN1C(=O)NC2(CCc3ccccc32)C1=O)c1ccccc1 (centres undefined)	-1.0	0.0	i	nt	nt	-0.1	0.66

Screening data deposited in PubChem BioAssay by several laboratories.
